# Compound activity deposited in PubChem BioAssay by several laboratories.
# West Nile antiviral = West Nile virus antiviral activity, cell-based, CPE readout (AID 1621); West Nile virus-infected cells, CPE inhibition; higher % means a stronger effect; CPE inhibition, % at 10 µM, or IC50 in µM where a hit was titrated; hit rate 0.02% among 290,000; in the data active means a potency from the dose series; further: strong numbers were not always called active
# SV40 large T antigen = SV40 large T antigen inhibitors, biochemical (AID 1903) | one-dose inhibition, % at 20 µM; IC50 in µM for titrated hits | hit rate 0.39% among 310,000 | SV40 large T antigen ATPase/helicase inhibition assay; higher % means a stronger effect; in the data active means a potency from the dose series; further: strong numbers were not always called active
# RSV antiviral HEp-2 = RSV antiviral activity via CPE protection, HEp-2 cells, primary 10 µM value included (AID 2391). hit rate 0.13% among 310,000. HEp-2 cells, RSV-induced CPE inhibition; higher % means a stronger effect. CPE inhibition, % at 10 µM; hits with a dose series show IC50 in µM; in the data active means a potency from the dose series; further: strong numbers were not always called active
# T cell HTS = T cell immune modulation candidate; calls only at 7 µM; 2C CD8+ T cell-vesicle binding, flow cytometry; hits give low values; hit rate 0.068% among 330,000; AID 2052;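 active means response, share of CD8 T cells binding vesicles, and their 90th percentile fluorescence all below set limits, cut at about 80% in these data, passing the limit was not always enough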
#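 Assay system: 2C TCR transgenic mouse naive CD8+ T cells, MACS-purified | Read-out: CD8+ gate FL2 mean fluorescence as % of same-row positive control | Signal: High-throughput flow cytometry with anti-B7-1 and anti-CD8 staining | Timing: Binding step 1.5 h, 37 °C, antibody labelling 20 min, ice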
# WT yeast gro inh = growth inhibition of WT yeast, mitochondrial fusion screen | mitochondrial fusion phenotypic screen, WT strain | inhibition, % at 10 µM | hit rate 2.1% among 190,000 | AID 1362; in the data active means inhibition above about 58%; tested in S. cerevisiae
# Myeloid diff 2 = myeloid differentiation induction; ER-HoxA9 myeloid progenitors, lysozyme-GFP differentiation, flow cytometry; AID 624256; hit rate 1% among 360,000; calls only at 10 µM;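 active means normalized GFP-positive differentiation at or above the plate's own cutoff, the solvent-only control mean plus 3 SD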;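 further: cells exposed to compound for four days before flow analysis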
# PhoP inhibition = inhibitors of PhoP regulon expression, primary screen, Salmonella Typhimurium, GFP reporter (AID 1863); S. Typhimurium PhoP-regulated promoter GFP reporter, 4 h; higher % means a stronger effect; inhibition, % at 50 µM; hits with a dose series show IC50 in µM; hit rate 0.16% among 300,000;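 active means inhibition over 29.93%, a cutoff 3 SD above the screen mean, later confirmed by dose response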;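 further: 0% = low Mg2+ inducing control and 100% = high Mg2+ repressing control; strong numbers were not always called active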
# MgcRacGAP inhibition = MgcRacGAP GTPase-activating activity inhibitors, confirmation, biochemical, ADP Hunter fluorescence; MgcRacGAP-stimulated Rac1 GTP hydrolysis, ADP Hunter fluorescence; higher % means a stronger effect; GST-tagged Rac1 F28L mutant substrate; inhibition, % at 30 µM, or IC50 in µM where a hit was titrated; hit rate 0.6% among 340,000; AID 624330;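 active means first-screen hits whose inhibition reached a set limit at any dose in the follow-up dose series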;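 further: fluorescence reports GDP produced by GAP-driven GTP hydrolysis; strong numbers were not always called active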
# WT yeast gro inh mutant strain = further read-out of WT yeast gro inh, marked with its call; inhibition, %; mitochondrial fusion phenotypic screen, mutant strain inhibition
# T cell HTS vesicle-bound % = further read-out of T cell HTS, marked with its call; double positive events, %; measured here: CD8+ vesicle-bound cell fraction;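 binding gate set so that unloaded-vesicle control wells show 10% double positive cells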
# Myeloid diff 2 GFP+ MAC1+ % = also measured in Myeloid diff 2; calls as there; GFP+ MAC1+ double positive, %; measured here: differentiation confirmed by MAC1 staining
# * hit, by the source's call; i = inactive; x = not tested or not shown. These rows are one share of the data; the hit share may differ from the screen's.
# Each structure is followed by: West Nile antiviral	SV40 large T antigen	RSV antiviral HEp-2	T cell HTS	T cell HTS vesicle-bound %	WT yeast gro inh	WT yeast gro inh mutant strain	Myeloid diff 2	Myeloid diff 2 GFP+ MAC1+ %	PhoP inhibition	MgcRacGAP inhibition
1) Cc1ccccc1-c1cc(C(=O)Nc2nc3c(s2)CCCC3)c2ccccc2n1
→ -1.1%	1%	11%	i	41	-6	5	i	0.3	-3%	11%
2) O=C(CSc1nnc(Cc2cc(=O)[nH]c(=O)[nH]2)n1-c1ccccc1)N1CCCC1
→ 0.2%	3%	1.2%	i	28	1	9	i	1.1	-3%	9%
3) Cn1cccc1CNC(=O)Nc1ccc(Cl)c(Cl)c1
→ 0.5%	19%	6.0%	i	26	20	0	i	0.6	3%	11%
4) c1ccc2c(-c3c[nH]c4ccccc34)c3ccccc3nc2c1
→ x	1%	3.7%	i	26	79*	26*	i	0.8	16%	10%
5) Cc1ccc(C)c(C(=O)COC(=O)c2ccccc2N2C(=O)C3C4CCC(C4)C3C2=O)c1 (stereo not drawn)
→ -1.3%	-1%	13%	i	25	9	5	i	0.7	-3%	1%
6) CC(C)(C)C(=O)Nc1ccc2c(c1)-c1cc(NC(=O)C(C)(C)C)ccc1C2
→ 2.9%	10%	4.2%	i	26	5	1	i	6.1	-6%	12%
7) O=C(Nc1ccccc1N1CCN(C(=O)c2ccc(Cl)cc2)CC1)c1cc(Br)ccc1Cl
→ -0.2%	-2%	8.8%	i	37	-17	-11	i	2.6	2%	1%
8) CC1=NN(c2ccc(Br)cc2)C(=O)/C1=C/c1cccs1
→ -0.3%	-10%	2.0%	i	31	-19	-8	i	0.8	-3%	4%
9) Cc1c(NC(=O)OCCNC(=O)COc2c(Cl)cccc2Cl)sc(=S)n1C
→ -0.9%	4%	-1.1%	i	43	4	6	i	0.1	-6%	12%
10) CC(NC1CCCC1)C(=O)Nc1ccccc1-c1ccccc1 (stereo not drawn)
→ -0.1%	13%	1.9%	i	28	17	14	i	0.7	-4%	12%
11) O=c1c2ccccc2nnn1CSc1nnc(COc2ccc(Cl)cc2)n1Cc1ccco1
→ -0.6%	3%	16%	i	47	6	15	i	1.7	-2%	-1%
12) O=C(Nc1ccc(F)cc1)c1cnc(-c2ccccc2)nc1-c1ccccc1
→ 2.1%	2%	-0.3%	i	16	0	5	i	0.5	16%	7%
13) CC(C)(C)c1nc2ccccc2c2nnc(SCC(=O)Nc3nc4ccccc4s3)n12
→ 1.1%	19%	4.8%	i	30	4	14	i	9.3	-1%	7%

# One compound at a time, from the list above. Values in the order: West Nile antiviral	SV40 large T antigen	RSV antiviral HEp-2	T cell HTS	T cell HTS vesicle-bound %	WT yeast gro inh	WT yeast gro inh mutant strain	Myeloid diff 2	Myeloid diff 2 GFP+ MAC1+ %	PhoP inhibition	MgcRacGAP inhibition
# Profile of `c1ccc2c(-c3c[nH]c4ccccc34)c3ccccc3nc2c1` → x	1%	3.7%	i	26	79*	26*	i	0.8	16%	10%
# Profile of `Cc1ccccc1-c1cc(C(=O)Nc2nc3c(s2)CCCC3)c2ccccc2n1` → -1.1%	1%	11%	i	41	-6	5	i	0.3	-3%	11%

# An excerpt from above with just MgcRacGAP inhibition.
item	SMILES	MgcRacGAP inhibition
12	O=C(Nc1ccc(F)cc1)c1cnc(-c2ccccc2)nc1-c1ccccc1	7%
8	CC1=NN(c2ccc(Br)cc2)C(=O)/C1=C/c1cccs1	4%
2	O=C(CSc1nnc(Cc2cc(=O)[nH]c(=O)[nH]2)n1-c1ccccc1)N1CCCC1	9%
6	CC(C)(C)C(=O)Nc1ccc2c(c1)-c1cc(NC(=O)C(C)(C)C)ccc1C2	12%
